# T cruzi inh = blocks replication of Trypanosoma cruzi; T. cruzi beta-gal in NIH3T3, luminescence, 90 h; AID 1885; inhibition, % (no concentration beside the values); 300,000 tested, 1.4% active;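 active means mean inhibition across valid replicates above about 55%, limit read from the data; inconclusive means mean below that limit but half or more replicates reach it; inactive means mean below it, under half of replicates reach it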;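 further: signal also drops with host cell toxicity which is not excluded here; 0% = plate median of DMSO wells and 100% = zero luminescence signal; higher percent means less beta-gal luminescence so fewer parasites; stock transfer was 50 nL into about 50 µL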
# Beta cell apopt = beta cell apoptosis inhibition | INS-1E cytokine-induced death, ATP luminescence, 48 h; percent of positive-control rescue, neutral wells zero | protection from apoptosis, % (no concentration beside the values) | 300,000 tested, 0.8% active | AID 435005;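 active means all replicates at 75% or more, or half of them and the mean; inconclusive means half reach 75% but not the mean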;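 further: 0% = cytokine-treated negative control wells and 100% = positive control rescue; higher means more ATP so stronger rescue from cytokine killing; wells of about 40 µL received 100 nL stock; the first replicate is given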
# AF4-AF9 inh = blocks AF4 peptide binding to human AF9; P42568; AlphaScreen, biotin-AF4 peptide binding to FLAG-AF9; inhibition, % at 10 µM; 350,000 tested, 0.47% active;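 active means every replicate reaching a set inhibition limit, whatever the replicate mean, cut at about 25% in these data; inconclusive means mean inhibition reaches that limit but some replicates miss it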;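 further: 0% = plate neutral control median and 100% = total signal loss; the record names both 10 and 1 µM as test concentration; the first replicate is given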
# Target sequence (P42568 whole entry, looked up): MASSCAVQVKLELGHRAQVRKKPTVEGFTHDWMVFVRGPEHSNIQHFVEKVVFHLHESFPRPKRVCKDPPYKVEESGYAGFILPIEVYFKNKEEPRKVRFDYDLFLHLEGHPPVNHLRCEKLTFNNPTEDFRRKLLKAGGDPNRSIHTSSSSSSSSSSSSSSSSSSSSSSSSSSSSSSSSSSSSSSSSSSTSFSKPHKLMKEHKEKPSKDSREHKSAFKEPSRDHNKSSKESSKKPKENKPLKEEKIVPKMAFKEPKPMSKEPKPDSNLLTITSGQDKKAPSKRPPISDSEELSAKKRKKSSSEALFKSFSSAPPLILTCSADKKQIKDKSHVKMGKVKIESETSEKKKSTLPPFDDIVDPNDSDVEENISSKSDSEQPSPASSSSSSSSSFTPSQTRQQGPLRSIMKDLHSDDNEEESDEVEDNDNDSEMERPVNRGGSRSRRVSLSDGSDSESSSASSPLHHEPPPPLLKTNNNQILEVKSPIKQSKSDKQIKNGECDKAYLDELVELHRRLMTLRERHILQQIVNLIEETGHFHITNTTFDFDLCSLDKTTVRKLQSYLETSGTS
# FGF22 binding = binders of recombinant human FGF22 by thermal shift. SYPRO orange fluorescence; percent of sucrose octasulfate shift, DMSO zero. calls only at 9.99 µM. 340,000 tested, 1.5% active. AID 651658;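 active means melting point raised past a set limit in the mean and every replicate; inconclusive means no clear call; three in four hits are not shown here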
# Target sequence (Q9HCT0 whole entry, looked up): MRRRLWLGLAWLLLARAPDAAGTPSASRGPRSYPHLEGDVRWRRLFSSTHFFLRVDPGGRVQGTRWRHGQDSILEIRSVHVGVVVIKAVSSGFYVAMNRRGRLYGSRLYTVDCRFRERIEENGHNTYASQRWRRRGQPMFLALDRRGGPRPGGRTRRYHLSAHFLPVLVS
# RanGTP-Impb inh = inhibitors of RanGTP-importin-beta interaction, primary screen, biochemical, FRET, CFP-Ran, YFP-importin-beta, homogeneous. cell-free CFP-Ran/YFP-importin-beta FRET ratio. inhibition, % (test concentration not listed). 300,000 tested, 1.1% active. AID 2216;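 active means most replicates above 15%; inconclusive means exactly half above 15%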;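 further: 0% = DMSO wells and 100% = Ran loaded with GDP instead of GTP; wells of about 40 µL received 100 nL stock; the first replicate is given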
# Ecoli rRNA inh = inhibitors of bacterial rRNA selective over humanized ribosomes; E. coli WT GFP vs humanized-ribosome RFP mutants, fluorescence, 24 h; active compounds read low; DMSO median 0, no signal -100; GFP signal change (wild-type ribosome), % (concentration not given with the values); 350,000 tested, 1.6% active;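 active means significant combined selectivity score with lowered wild-type GFP, culture density cut under 30%, mutant RFP and density less affected; inactive means any of these conditions unmet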; further: one replicate is shown; some compounds called inactive have numbers as strong as hits
# ALR inh = blocks human ALR sulfhydryl oxidase activity. P55789. purified ALR, DTT oxidation, H2O2 HRP-luminol luminescence. inhibition, % (concentration not given with the values). 290,000 tested, 3.8% active. AID 485317;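 active means mean and each replicate at 75% or more; inconclusive means only one of the two met; inactive means neither met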;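 further: stock transfer was 7.5 nL into about 7.5 µL; 0% = neutral wells and 100% = wells with inactivated enzyme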
# Target sequence (P55789 whole entry, looked up): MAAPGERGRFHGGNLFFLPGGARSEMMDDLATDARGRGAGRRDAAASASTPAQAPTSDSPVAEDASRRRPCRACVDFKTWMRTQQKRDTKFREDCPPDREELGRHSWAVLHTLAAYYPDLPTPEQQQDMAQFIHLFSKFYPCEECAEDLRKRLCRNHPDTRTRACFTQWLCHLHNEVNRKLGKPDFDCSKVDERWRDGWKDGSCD
# Calb FLC = C. albicans growth modulation with fluconazole. growth inhibition, % (concentration not given with the values). C. albicans CaCi-2 (fluconazole-resistant clinical isolate) + fluconazole, Alamar Blue growth, 48 h. AID 1979. 300,000 tested, 0.57% active;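 active means most replicates above 75%; inconclusive means exactly half above 75%; inactive means most below 75%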;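 further: all wells also contain fluconazole at 8 µg/ml as a sub-toxic cotreatment; 0% = median of DMSO wells and 100% = median of geldanamycin control wells; wells of about 8 µL received 7.5 nL stock; the first replicate is given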
# Ecoli rRNA inh OD600 = recorded beside Ecoli rRNA inh, whose call it bears; OD600 change, %; measured here: OD600 growth;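 optical density of the mix in the first replicate; 0 = DMSO median and -100 = no signal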
# Ecoli rRNA inh RFP = further read-out of Ecoli rRNA inh, marked with its call; RFP signal change, %; measured here: RFP humanized mutant strains;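 first replicate; 0 = DMSO median and -100 = no signal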
# The depositor's hits bear a star; i = inactive; ? = inconclusive; . = not tested or not shown; & = joins results of further samples.
SMILES,T cruzi inh,Beta cell apopt,AF4-AF9 inh,FGF22 binding,RanGTP-Impb inh,Ecoli rRNA inh,Ecoli rRNA inh OD600,Ecoli rRNA inh RFP,ALR inh,Calb FLC
COc1ccc(-c2cc(C(=O)Nc3cccc(O)c3)no2)cc1,4,7,-3.3,i,-0.3,6,11,0.5,-13,7
C[C@@H]1CN([C@@H](C)CO)C(=O)c2cc(NC(=O)Nc3ccccc3)ccc2O[C@H]1CN(C)C(=O)Nc1cccc2ccccc12,.,1,0.0,i,.,2,0,3.0,-7,.
O=C(Cn1ccc2ccccc2c1=O)N1CCN(Cc2ccc3c(c2)OCO3)CC1,1,-2,.,.,3.6,.,.,.,-4,-7
CS(=O)(=O)N1CCC(c2noc(-c3ccc(C(F)(F)F)cc3)n2)CC1,4,1,.,.,-2.3,.,.,.,3,4
Cc1cc(C)cc(Oc2coc3cc(OC(=O)c4cccs4)ccc3c2=O)c1,-3,.,.,.,-7.0,.,.,.,-7,-4
Cc1cccc(-c2noc(CN(C(=O)CCc3ccccc3)C(C)C)n2)c1,35,2,.,.,5.7,.,.,.,2,-3
CN(C)c1ccc(/C=N/NC(=O)c2ccc(CN3CCOCC3)cc2)cc1Br,-4,0,3.5,i,8.8,-6,3,2.2,-6,-4
COc1ccc(CCNC(=S)Nc2cc(C)cc(C)c2)cc1,-2,0,.,.,?,.,.,.,3,-2
C=C(CC[C@@H](O)C(C)(C)O)[C@H]1CC[C@]2(C)[C@@H]1CCC1[C@@]3(C)CC[C@H](O)C(C)(C)C3CC[C@]12C (stereo partly drawn),.,-2,-4.1,i,.,8,11,6.3,-5,.
O=C(N/N=C/c1cccc(F)c1)c1csc2c1CCCC2,5,5,.,.,-0.6,.,.,.,-12,-13
COCc1cc(=O)oc2cc(NS(=O)(=O)c3ccc(C)cc3)ccc12,-5,5,1.5,i,8.3,-2,19,2.4,1,-1
Cc1ccc(-c2nc3sc(C(N)=O)c(N)c3c3c2CCCC3)cc1,-2,-1,-12,i,-5.0,-43,-49,-26,-9,-8
CCOC(=O)C(=O)NC(C)CCc1ccccc1 (stereo not drawn),2,0,0.4,i,2.7,2,-3,-5.8,-13,1
COc1ccccc1C(=O)NCC(=O)N/N=C/c1cc(Br)ccc1OC(=O)/C=C\c1ccco1,0,59,.,.,0.8,.,.,.,-3,15
CC1OC(Nc2cccc3ccccc23)C(O)C(O)C1O (stereo not drawn),-32,57,.,.,-0.3,.,.,.,42,28
CCCCN(C)C(=O)c1cn(CC)c2nc(C)ccc2c1=O,-1,-2,.,.,?,.,.,.,-6,1
Brc1ccc(C[n+]2ccccc2)cc1,-20,-7,-0.2,i,2.9,-2,15,-5.4,.,-10
Cc1ccc(S(=O)(=O)N/N=C/C(C)(C)CO)cc1,-23,6,.,.,0.4,.,.,.,4,4
CCCS(=O)(=O)NCc1ccc2c(c1)cc(C)n2C,11,1,4.5,i,4.7,-7,-3,12,-15,5
COC(=O)c1ccccc1OCCN1CCCCCC1,8,-10,1.7,i,5.1,10,5,1.8,-4,-24
N=c1c(S(=O)(=O)c2ccc(Br)cc2)cc2c(=O)n3ccccc3nc2n1C1CCCC1,32,-3,3.2,i,69*,8,13,0.5,0,1
O=C(NCCc1cn2ccsc2n1)c1cccs1,-10,-5,1.8,i,10,2,9,-1.9,5,1
CCN(CC)C(=O)Cn1cc(S(=O)(=O)CC(=O)Nc2cc(C)on2)c2ccccc21,-19,-2,-1.6,i,-0.2,11,3,1.7,.,23
COCCCNC(=O)c1cccs1,-4,-3,.,.,-3.9,.,.,.,11,-13
CC(C)NC(=O)Cn1c(=O)c2c(ncn2Cc2ccccc2)n(Cc2ccccc2)c1=O,0,-1,-32,i,-6.1,.,.,.,-4,37
# (cont.)
SMILES,T cruzi inh,Beta cell apopt,AF4-AF9 inh,FGF22 binding,RanGTP-Impb inh,Ecoli rRNA inh,Ecoli rRNA inh OD600,Ecoli rRNA inh RFP,ALR inh,Calb FLC
CCOC(=O)C1(Cc2ccccc2)CCCN(C(=O)c2cn[nH]c2)C1 (stereo not drawn),-18,-5,2.8,i,1.9,1,-5,-2.5,-8,-5
CC(C)c1ccccc1NC(=O)c1ccccc1NC(=O)C1CCCCC1,32,3,-2.1,i,1.3,13,6,0.2,-10,0
CCOC(=O)C1CCC/C1=N\NC(=O)CN(c1cc(OC)ccc1OC)S(=O)(=O)c1ccccc1 (stereo not drawn),16,3,1.1,i,0.4,3,5,4.3,0,-1
C[C@H](NC(=O)OCc1ccccc1)C(=O)NNC(=O)[C@H](C)NC(=O)OCc1ccccc1,-17,-3,0.6,i,-1.3,18,11,-2.5,9,-4
C=CCOc1ccc(/C=C/C(=O)OCC(=O)NC2CCCCCCC2)cc1,-5,-2,0.1,i,?,11,14,3.1,-2,-3
Cc1ccc(Cn2c(=O)c3c(nc4n3CCCN4Cc3ccccc3)n(C)c2=O)cc1,12,5,.,.,-0.4,.,.,.,-7,9
O=C(NCc1cccnc1)c1ccc(=O)oc1,7,-4,.,.,0.3,.,.,.,-14,8
CCC(=O)Nc1cccc(NC(=O)CSc2nc3c(c(=O)n(C)c(=O)n3C)n2C)c1,-15,-5,-0.7,i,-2.3,2,6,-0.8,-20,4
CCOC(=O)c1c(NCC(C)C)c2ccccc2[nH]c1=O,-5,-6,.,.,2.3,.,.,.,-7,2
Cc1ccc(S(=O)(=O)N2CCOC2CNC(=O)C(=O)NCCN2CCOCC2)cc1 (stereo not drawn),-9,-11,3.0,i,-1.2,26,16,2.8,-4,-3
COc1ccc(C(=O)NCC(=O)N/N=C(C)\C=C\c2ccccc2)cc1OC,10,4,1.5,i,0.4,14,5,1.8,-4,21
CC(C)(NO)/C(=N\O)c1ccccc1,-11,-1,.,.,2.2,.,.,.,0,5
O=C(COc1ccc2c(-c3ccccc3)cc(=O)oc2c1)NCCCN1CCOCC1,-14,-9,0.9,i,?,-4,-3,-0.3,6,28
CCCc1nc(SCC(=O)c2ccccc2)c2c(=O)n(C)c(=O)n(C)c2n1,33,29,-16,i,0.5,2,9,-4.0,1,-1
CCOC(=O)[C@H]1[C@H]2COc3ccc(OC)cc3[C@@H]2N2C(=O)CN(CCc3c[nH]c4ccccc34)C(=O)[C@@]12C,.,2,8.8,i,.,-4,-2,2.8,-3,.
COc1ccc(C(=O)O)cc1S(=O)(=O)N(CCc1ccccc1)Cc1ccccc1,-5,-2,0.7,i,-2.4,-36*,-21*,-7.3*,6,18
O=C1NC(=O)C(c2cn(-c3ccccc3)nc2-c2ccc(F)cc2)N1 (stereo not drawn),2,-10,.,.,-2.0,.,.,.,-4,0
CCCCn1c(N)c(N(CCOC)C(=O)c2cccc(-n3cnnn3)c2)c(=O)[nH]c1=O,-1,-3,0.0,i,2.3,13,11,1.1,-6,0
Cc1noc(C)c1NC(=O)N(C)C[C@H]1Oc2ccc(NS(=O)(=O)c3cccs3)cc2C(=O)N([C@H](C)CO)C[C@@H]1C,.,-3,-0.4&-4.0,i,.,-1&30,5&23,0.1&3.6,-4,.
COc1ccc(Cc2n[nH]c(=S)n2C)cc1Br,-14,4,-6.0,.,-3.6,13,5,-3.6,65,-2
Cc1cc(=O)nc2c3ccccc3n(CC(=O)NCCCN3CCCCC3C)n12 (stereo not drawn),-23,-9,-0.1,i,0.3,6,20,-0.8,-6,0
CCN(CC)CCNC(=O)C(=O)Nc1cc2c3c(c1)CCC(=O)N3CCC2,1,3,-1.2,i,-1.2,1,3,-2.3,-26,12
CO/N=C(\CS(=O)(=O)Cc1ccc(OC)cc1)c1ccc(Cl)cc1,9,11,1.2,i,-1.9,20,9,-2.1,.,-1
CCOC(=O)C1=C(C)NC2=C(C(=O)CCC2)C1c1cn(Cc2ccc(Cl)cc2Cl)nc1-c1ccccc1 (stereo not drawn),49,-1,.,.,0.3,.,.,.,-7,1
Nc1ncnc2c1nc(Br)n2[C@@H]1O[C@@H]2COP(=O)(O)O[C@H]2[C@H]1O,4,5,-6.3,i,-1.7,.,.,.,12,.

# Structures listed above printed as active in RanGTP-Impb inh.
SMILES | AF4-AF9 inh | FGF22 binding | RanGTP-Impb inh | Ecoli rRNA inh | Ecoli rRNA inh OD600 | Ecoli rRNA inh RFP | ALR inh
N=c1c(S(=O)(=O)c2ccc(Br)cc2)cc2c(=O)n3ccccc3nc2n1C1CCCC1 | 3.2 | i | 69* | 8 | 13 | 0.5 | 0

# Next records:
SMILES,T cruzi inh,Beta cell apopt,AF4-AF9 inh,FGF22 binding,RanGTP-Impb inh,Ecoli rRNA inh,Ecoli rRNA inh OD600,Ecoli rRNA inh RFP,ALR inh,Calb FLC
Cc1cc(Cl)ccc1OCCCC(=O)NCCc1nnc2ccccn12,-2,1,1.2,i,1.5,4,8,2.2,-4,-1
COc1ccc(-n2nc3c(c2NC(=O)C2CC2)CS(=O)C3)cc1 (stereo not drawn),-4,0,.,.,-0.5,.,.,.,4,-7
O=C(N/C(=C/c1ccco1)C(=O)N1CCCCC1)c1cccs1,-17,3,.,.,1.9,.,.,.,23,3
COCCNC(=S)N1CCN(S(=O)(=O)c2ccc(Cl)s2)CC1,6,-8,-0.8,i,-0.5,-1,2,1.5,0,-3
CCCn1c(=N)n(CC(=O)c2ccc(Cl)c(Cl)c2)c2ccccc21,34,-2,-0.7,i,2.4,-8,-13,40,3,43
FC(F)(F)c1ccc(N=Cc2sc(N3CCOCC3)nc2-c2ccccc2)cc1,-23,-12,1.0,i,?,9,18,1.8,2,5
O=C(N1CCN(Cc2ccccc2)CC1)C(Cl)(Cl)Cl,-1,-8,3.9,i,2.4,5,11,1.4,3,0
CC1CN(C2CCN(S(=O)(=O)c3ccc(F)cc3)CC2)CC(C)O1 (stereo not drawn),6,-4,.,.,-2.3,.,.,.,-1,3
CC1(NC(=O)Nc2cccc3ccccc23)CCS(=O)(=O)C1 (stereo not drawn),2,0,-14,i,6.4,4,3,-3.4,-22,-3
CCC(C)(C)n1nnnc1C(c1ccccn1)N1CCN(c2cccc(OC)c2)CC1 (stereo not drawn),-5,-5,.,.,2.6,.,.,.,41,-4
COC(=O)C(CC(C)C)NC(=O)/C=C/c1ccc(Cl)cc1 (stereo not drawn),-13,1,0.3,i,-0.5,-12,-2,-3.0,-4,-10
CN(C)c1ccc(-c2cccc(C3CC=CC4C3C(=O)N(Cc3ccccc3)C4c3ccc(C(F)(F)F)cc3)c2)cc1 (stereo not drawn),27,5,.,.,2.7,.,.,.,-18,3
CCOC(=O)CSc1cc(=O)n(C)c2cc(Cl)ccc12,-16,-5,.,.,-0.5,.,.,.,-5,-6
Cc1ccc(S(=O)(=O)N(Cc2cc3ccccc3[nH]c2=O)c2cccc(C)c2)cc1,47,10,-11,i,-1.4,3,5,2.2,-23,30
O=C(O)c1c[nH]c2ccc(F)cc2c1=O,4,-3,-8.2,i,2.4,7,-4,0.4,-14,-1
COc1ccc(CCNC(=O)C2CCCN2C(=O)Nc2ccc(Cl)cc2)cc1OC (stereo not drawn),5,-4,0.6,i,2.5,3,7,1.4,.,-4
O=C(CCSc1ccc(Cl)cc1)N1CCN(c2ncccn2)CC1,-7,2,.,.,1.5,.,.,.,-3,-5
c1csc(-c2nc(N3CCOCC3)c3ccccc3n2)c1,0,-3,-0.6,i,1.8,1,-2,0.6,1,-2

# High-throughput results (PubChem)

# Only part of the results is shown, so the mix of outcomes need not match the whole.
